UCH37 DUB inh = inhibitors of human UCH37 deubiquitinase, primary screen, biochemical, Ub-AMC cleavage, fluorescence; inhibition, % (test concentration not listed); actives 0.33% (n = 330,000); purified proteasome/UCH37; AID 588478, 2011; Ubiquitin carboxyl-terminal hydrolase isozyme L5 (Homo sapiens), Q9Y5K5;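 active = mean of two replicates above 20%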;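 also: 0% = compound-free wells with enzyme and 100% = wells lacking proteasome; stock transfer was 100 nL into about 20 µL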
Target sequence (Q9Y5K5 whole entry, looked up): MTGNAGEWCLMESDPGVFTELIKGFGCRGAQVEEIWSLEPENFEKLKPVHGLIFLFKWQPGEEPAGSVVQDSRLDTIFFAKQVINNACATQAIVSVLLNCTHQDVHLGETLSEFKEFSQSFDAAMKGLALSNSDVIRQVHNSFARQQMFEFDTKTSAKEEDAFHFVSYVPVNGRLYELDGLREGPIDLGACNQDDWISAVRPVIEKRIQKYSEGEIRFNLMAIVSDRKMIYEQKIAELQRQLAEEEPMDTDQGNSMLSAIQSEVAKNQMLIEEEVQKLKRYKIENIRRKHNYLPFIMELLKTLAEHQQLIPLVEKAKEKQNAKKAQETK
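system = Proteasome-associated human UCH37 deubiquitinase | amount = 0.15 nM proteasome as dispensed | medium = pH 7.4 Tris-HCl (50 mM) with ovalbumin, ATP-MgCl2, DTT | incubation = 30 min preincubation with enzyme, 25 min cleavage at room temperature | detection = AMC fluorescence 355/460 nm | read-out basis = percent inhibition | controls = no-proteasome and no-compound wells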
FGF22 binding = binders of human FGF22 protein, primary screen, FGF22 synaptogenesis inhibitor project, biophysical, thermal shift, single point. Fibroblast growth factor 22 (Homo sapiens), Q9HCT0. calls only at 9.99 µM. actives 1.5% (n = 340,000). recombinant FGF22 thermal shift, SYPRO orange fluorescence; percent of sucrose octasulfate shift, DMSO zero;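 active = melting point raised past a set limit in the mean and every replicate; three in four hits are not shown here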
Target sequence (Q9HCT0 whole entry, looked up): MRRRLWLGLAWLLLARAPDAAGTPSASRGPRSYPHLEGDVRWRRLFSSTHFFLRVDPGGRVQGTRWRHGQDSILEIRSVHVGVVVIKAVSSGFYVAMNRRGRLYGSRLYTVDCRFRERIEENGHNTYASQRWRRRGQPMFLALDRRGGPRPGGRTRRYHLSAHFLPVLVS
Beta2AR agonist = beta2AR agonists driving receptor internalization, primary screen, cell-based, FAP fluorogen, flow cytometry; Beta-2 adrenergic receptor (Homo sapiens), P07550; Am2.2-beta2AR cells; reference of the scale not given here; response, % (test concentration not listed); actives 0.43% (n = 340,000);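 active = response above a set limit, near 3 SD of response in nonfluorescent compounds, cut at about 42% in these data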;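 also: stock transfer was 100 nL into about 11 µL; a reference agonist was the positive control; negative values mostly stem from fluorescent compounds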
ALR inh = inhibitors of human ALR sulfhydryl oxidase, primary screen, biochemical, H2O2 detection, HRP-luminol luminescence, single point. FAD-linked sulfhydryl oxidase ALR (Homo sapiens), P55789. purified ALR, DTT oxidation. inhibition, % (no concentration beside the values). actives 3.8% (n = 290,000);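 active = mean and each replicate at 75% or more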;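 also: stock transfer was 7.5 nL into about 7.5 µL; 0% = neutral wells and 100% = wells with inactivated enzyme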
Ecoli rRNA inh = reduced GFP signal of wild-type E. coli, primary screen, bacterial rRNA inhibitor project, GFP/RFP fluorescence, OD600, single point; GFP signal change (wild-type ribosome), % (no concentration beside the values); E. coli WT GFP vs humanized-ribosome RFP mutants, 24 h; active compounds read low; DMSO median 0, no signal -100; actives 1.6% (n = 350,000);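 active = significant combined selectivity score with lowered wild-type GFP, culture density cut under 30%, mutant RFP and density less affected; inactive = any of these conditions unmet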; also: one replicate is shown; some compounds called inactive have numbers as strong as hits
HNF4A DNA FP = change in binding of human HNF4A to DNA, primary screen, biochemical, fluorescence polarization, FITC-DNA; 1 h; Hepatocyte nuclear factor 4-alpha (Homo sapiens), P41235; activity change, % at 10 µM; actives 0.3% (n = 360,000); in the data active = activity change above about 30%, passing the limit was not always enough;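 also: controls were the assay level and a saturating level of protein; the project sought stronger binding though the title names inhibitors; some compounds called inactive have numbers as strong as hits; positive values seem to mean higher polarization but the record does not say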
Target sequence (P41235 whole entry, looked up): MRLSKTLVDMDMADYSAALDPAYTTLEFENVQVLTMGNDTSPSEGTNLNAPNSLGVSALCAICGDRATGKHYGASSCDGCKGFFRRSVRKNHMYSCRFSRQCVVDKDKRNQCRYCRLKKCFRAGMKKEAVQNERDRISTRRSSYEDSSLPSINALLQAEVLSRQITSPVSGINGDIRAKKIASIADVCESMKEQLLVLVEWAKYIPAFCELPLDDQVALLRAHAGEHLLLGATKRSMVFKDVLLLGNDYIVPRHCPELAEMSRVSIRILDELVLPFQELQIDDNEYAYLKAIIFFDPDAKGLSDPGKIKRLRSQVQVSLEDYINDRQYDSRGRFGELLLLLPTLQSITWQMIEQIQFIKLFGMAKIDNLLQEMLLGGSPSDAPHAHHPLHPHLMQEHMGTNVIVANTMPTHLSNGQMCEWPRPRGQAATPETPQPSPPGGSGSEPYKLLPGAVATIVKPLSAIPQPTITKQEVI
Ecoli growth = E. coli growth inhibition, primary screen, OD600; actives 0.21% (n = 330,000); OD600 absorbance (test concentration not listed); Escherichia coli growth, 23 h; active compounds read low;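 active = OD600 absorbance below the run mean of sample wells minus 3.6 SD, in any replicate, cut at about 0.56 in these data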;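 also: stock transfer was 300 nL into about 60 µL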
Ecoli rRNA inh OD600 = second read-out of Ecoli rRNA inh, no call of its own (marks repeat the call); OD600 change, %; measured here: OD600 growth;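 optical density of the mix in the first replicate; 0 = DMSO median and -100 = no signal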
Ecoli rRNA inh RFP = also measured in Ecoli rRNA inh; calls as there; RFP signal change, %; measured here: RFP humanized mutant strains;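 first replicate; 0 = DMSO median and -100 = no signal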
* hit, by the source's call.

For CCOc1ccccc1NC(=O)CSC1=NN2CCCC(=O)N=C2S1 the results were UCH37 DUB inh 4.6, FGF22 binding inactive, Beta2AR agonist 8, ALR inh -20, Ecoli rRNA inh 2, HNF4A DNA FP -2.4, Ecoli growth 0.68, Ecoli rRNA inh OD600 -4 and Ecoli rRNA inh RFP 0.9.
For CCOC(=O)CCCNC(=O)CCNC(=O)c1ccc(OCC)cc1 the results were UCH37 DUB inh -1.1, Beta2AR agonist -3, ALR inh -3, HNF4A DNA FP 4.8 and Ecoli growth 0.69.
For Cc1cc(C)c2c(CN3CCN(CCO)CC3)cc(=O)oc2c1 the results were UCH37 DUB inh 3.0, Beta2AR agonist -14, ALR inh -3, HNF4A DNA FP -4.0 and Ecoli growth 0.65.
For COc1ccc(C(=O)Nn2c(SCC(=O)N3CCC(C)CC3)nc3ccccc3c2=O)cc1 the results were UCH37 DUB inh -4.3, Beta2AR agonist 4, HNF4A DNA FP -5.6 and Ecoli growth 0.69.
Screening CCOC(=O)c1oc2ccccc2c1CN1CCCCC1 returned UCH37 DUB inh 1.1, FGF22 binding inactive, Beta2AR agonist -2, ALR inh -16, Ecoli rRNA inh 5, HNF4A DNA FP 2.3, Ecoli growth 0.67, Ecoli rRNA inh OD600 2 and Ecoli rRNA inh RFP -8.3.
`COc1ccc(NC(=O)c2ccc3c(c2)CCN3S(=O)(=O)c2ccccc2)c(OC)c1` gave UCH37 DUB inh -3.5, FGF22 binding inactive, Beta2AR agonist 16, ALR inh 1, Ecoli rRNA inh -15, HNF4A DNA FP 2.0, Ecoli growth 0.74, Ecoli rRNA inh OD600 -1 and Ecoli rRNA inh RFP -0.1.
`COC(=O)c1ccc(CSc2nc3ccccc3c(=O)n2Cc2ccco2)o1` gave UCH37 DUB inh 3.3, Beta2AR agonist 1, ALR inh 94*, Ecoli rRNA inh -15, HNF4A DNA FP -1.6, Ecoli growth 0.71, Ecoli rRNA inh OD600 -8 and Ecoli rRNA inh RFP 2.0.
For Cc1ccccc1CNC(=O)c1cc(COc2ccc(F)cc2F)on1 the results were UCH37 DUB inh 5.7, FGF22 binding inactive, Beta2AR agonist -1, ALR inh 18, Ecoli rRNA inh 2, HNF4A DNA FP -1.2, Ecoli growth 0.67, Ecoli rRNA inh OD600 5 and Ecoli rRNA inh RFP 1.1.
For CC(=O)Nc1ccc(OCC(O)CN2CCN(Cc3ccccc3)CC2)cc1 (stereo not drawn) the results were UCH37 DUB inh 4.1, FGF22 binding inactive, Beta2AR agonist -2, ALR inh -15, Ecoli rRNA inh 22, HNF4A DNA FP 1.3, Ecoli growth 0.72, Ecoli rRNA inh OD600 8 and Ecoli rRNA inh RFP -0.6.
For O=C(/C=C/c1ccccc1)CC(=O)c1ccccc1 the results were UCH37 DUB inh 1.5, FGF22 binding inactive, Beta2AR agonist -5, Ecoli rRNA inh 2, HNF4A DNA FP 5.2, Ecoli growth 0.65, Ecoli rRNA inh OD600 -7 and Ecoli rRNA inh RFP 3.4.
For O=C(COC(=O)c1ccc(O)cc1O)N=c1sccn1Cc1ccccc1Cl the results were UCH37 DUB inh -0.8, Beta2AR agonist 4, ALR inh 5, Ecoli rRNA inh -51, HNF4A DNA FP -0.8, Ecoli growth 0.65, Ecoli rRNA inh OD600 -72 and Ecoli rRNA inh RFP -14.
`COc1ccc(-c2nnc(N(C)C(=O)C3CCCO3)s2)cc1` (stereo not drawn) gave UCH37 DUB inh 16, Beta2AR agonist -6, ALR inh -9, HNF4A DNA FP 1.7 and Ecoli growth 0.7.
Cc1ccc2[nH]c(C)c(CC(=O)O)c2c1 was read as UCH37 DUB inh 3.3, Beta2AR agonist -1, ALR inh 15, HNF4A DNA FP -1.0 and Ecoli growth 0.7.
`Cc1ccc(C)c2[nH]c(=O)c(CCNC(=O)CCc3ccccc3)cc12` gave UCH37 DUB inh 3.3, FGF22 binding inactive, Beta2AR agonist 2, ALR inh 1, Ecoli rRNA inh 14, HNF4A DNA FP 0.9, Ecoli growth 0.73, Ecoli rRNA inh OD600 4 and Ecoli rRNA inh RFP 0.0.
For Cc1cc2oc(=O)cc(CSc3nnc(-c4cccs4)o3)c2cc1C(C)C the results were UCH37 DUB inh -7.0, Beta2AR agonist 0, ALR inh 3, HNF4A DNA FP 6.7 and Ecoli growth 0.71.

The last three records of the part above open the next one:
Cc1ccc2[nH]c(C)c(CC(=O)O)c2c1 was read as UCH37 DUB inh 3.3, Beta2AR agonist -1, ALR inh 15, HNF4A DNA FP -1.0 and Ecoli growth 0.7.
`Cc1ccc(C)c2[nH]c(=O)c(CCNC(=O)CCc3ccccc3)cc12` gave UCH37 DUB inh 3.3, FGF22 binding inactive, Beta2AR agonist 2, ALR inh 1, Ecoli rRNA inh 14, HNF4A DNA FP 0.9, Ecoli growth 0.73, Ecoli rRNA inh OD600 4 and Ecoli rRNA inh RFP 0.0.
For Cc1cc2oc(=O)cc(CSc3nnc(-c4cccs4)o3)c2cc1C(C)C the results were UCH37 DUB inh -7.0, Beta2AR agonist 0, ALR inh 3, HNF4A DNA FP 6.7 and Ecoli growth 0.71.
Screening COc1cccc(Nc2ncnc3ccccc23)c1 returned UCH37 DUB inh -0.5, Beta2AR agonist -4, ALR inh -6, HNF4A DNA FP 4.9 and Ecoli growth 0.66.
`Cc1cc(C)c(NC(=O)CN2C(=O)NC3(CCCCC3)C2=O)c(Cl)c1` gave UCH37 DUB inh 1.5, FGF22 binding inactive, Beta2AR agonist -10, ALR inh 22, Ecoli rRNA inh -5, HNF4A DNA FP 3.0, Ecoli growth 0.71, Ecoli rRNA inh OD600 -5 and Ecoli rRNA inh RFP -1.4.
Screening N#CCCn1cc(C(=O)N2CCOCC2)c(-c2ccc3c(c2)OCCO3)n1 returned UCH37 DUB inh 2.9, FGF22 binding inactive, Beta2AR agonist 0, ALR inh 0, Ecoli rRNA inh 23, HNF4A DNA FP 1.6, Ecoli growth 0.7, Ecoli rRNA inh OD600 19 and Ecoli rRNA inh RFP 2.1.
CCC1(C)Cc2nc3[nH]c(=S)n(-c4ccccc4)c(=O)c3cc2CO1 (stereo not drawn) was read as UCH37 DUB inh 2.6, Beta2AR agonist 5, ALR inh -15, Ecoli rRNA inh 8, HNF4A DNA FP -3.8, Ecoli growth 0.69, Ecoli rRNA inh OD600 9 and Ecoli rRNA inh RFP 2.6.
CCn1nnnc1SCC(=O)N1CCCc2ccccc21 was read as UCH37 DUB inh 3.0, Beta2AR agonist 16, ALR inh -2, HNF4A DNA FP -2.3 and Ecoli growth 0.74.
O=C(CN1CCOCC1)N/N=C/C=C/c1ccccc1 was read as FGF22 binding inactive, Beta2AR agonist -1, ALR inh -4, Ecoli rRNA inh 13, HNF4A DNA FP -2.7, Ecoli rRNA inh OD600 13 and Ecoli rRNA inh RFP 4.2.
Screening CC(C)(C)N1C(=O)c2ccccc2NC(=O)C1C(=O)Nc1ccc2c(c1)OCCO2 (stereo not drawn) returned FGF22 binding inactive, Ecoli rRNA inh 10, HNF4A DNA FP 0.3, Ecoli rRNA inh OD600 13 and Ecoli rRNA inh RFP 0.9.
For COc1cc(/C=C(\C#N)c2nc3ccccc3s2)cc([N+](=O)[O-])c1O the results were UCH37 DUB inh 26*, FGF22 binding inactive, Beta2AR agonist 2, Ecoli rRNA inh 8, HNF4A DNA FP 20, Ecoli growth 0.72, Ecoli rRNA inh OD600 -26 and Ecoli rRNA inh RFP 28.
Screening Cc1ccc(C2=NN(C(=O)CSc3nnnn3C)C(c3ccco3)C2)cc1 (stereo not drawn) returned UCH37 DUB inh 0.0, FGF22 binding inactive, Beta2AR agonist -4, ALR inh -15, Ecoli rRNA inh 21, HNF4A DNA FP 1.4, Ecoli growth 0.7, Ecoli rRNA inh OD600 14 and Ecoli rRNA inh RFP 4.0.
Screening CCOC(=O)N1CCC(NC(=O)CCc2nc(-c3ccc(C)cc3)no2)CC1 returned UCH37 DUB inh 1.4, Beta2AR agonist -14, ALR inh 0, HNF4A DNA FP 0.2 and Ecoli growth 0.76.
COc1cc(NS(=O)(=O)c2ccc(NC(=O)/C=C/c3cccc([N+](=O)[O-])c3)cc2)ncn1 was read as UCH37 DUB inh 8.1, FGF22 binding inactive, Beta2AR agonist 7, ALR inh 89*, Ecoli rRNA inh 22, HNF4A DNA FP -1.7, Ecoli rRNA inh OD600 18 and Ecoli rRNA inh RFP 0.8.
For O=C1NC2(CCCCC2)NN1c1ccccc1 the results were UCH37 DUB inh 0.2, Beta2AR agonist 3, HNF4A DNA FP -1.0 and Ecoli growth 0.7.
Screening COc1cccc(-c2nc(N3CCN(c4ccccc4)CC3)c3ccccc3n2)c1O returned UCH37 DUB inh 0.9, Beta2AR agonist 1, ALR inh -5, HNF4A DNA FP 1.0 and Ecoli growth 0.75.
For CCOCCCNC(=O)C(NC(=O)c1cnccn1)c1ccc(OC)cc1 (stereo not drawn) the results were UCH37 DUB inh 1.2, Beta2AR agonist -10, ALR inh -6, HNF4A DNA FP 1.0 and Ecoli growth 0.72.
Screening CCCn1c(N2CCN(C(=O)Nc3ccccc3)CC2)nc2ccccc21 returned UCH37 DUB inh -0.8, FGF22 binding inactive, Beta2AR agonist -2, ALR inh 1, Ecoli rRNA inh -25, HNF4A DNA FP -1.5, Ecoli growth 0.64, Ecoli rRNA inh OD600 -21 and Ecoli rRNA inh RFP -0.8.
For COc1cc(C(c2nnnn2C2CCCC2)N2CCN(C)CC2)cc(OC)c1OC (stereo not drawn) the results were UCH37 DUB inh 1.2, Beta2AR agonist 0, ALR inh -9, HNF4A DNA FP 2.9 and Ecoli growth 0.72.
For Cc1ccc(C)c(NC(=S)NC(NC(=O)/C=C/c2ccccc2)C(Cl)(Cl)Cl)c1 (stereo not drawn) the results were UCH37 DUB inh 1.1, Beta2AR agonist -3, ALR inh -2, HNF4A DNA FP 0.4 and Ecoli growth 0.71.
COc1cc(OC)cc(C(=O)NNC(=S)Nc2ccccc2OC)c1 was read as UCH37 DUB inh 0.0, FGF22 binding inactive, Beta2AR agonist -8, ALR inh 15, Ecoli rRNA inh -8, HNF4A DNA FP 1.6, Ecoli growth 0.68, Ecoli rRNA inh OD600 -7 and Ecoli rRNA inh RFP -5.4.
`CC(=O)c1ccc(-n2nnnc2SCC(=O)NC2CCCCC2)cc1` gave UCH37 DUB inh 3.6, FGF22 binding inactive, Beta2AR agonist -3, ALR inh -5, Ecoli rRNA inh -3, HNF4A DNA FP 4.0, Ecoli growth 0.67, Ecoli rRNA inh OD600 -2 and Ecoli rRNA inh RFP 0.2.
For COc1ccc([N+](=O)[O-])cc1NC(=O)c1ccc(N(Cc2ccccc2C)S(C)(=O)=O)cc1 the results were UCH37 DUB inh 2.4, FGF22 binding inactive, Beta2AR agonist 4, ALR inh -3, Ecoli rRNA inh 9, HNF4A DNA FP -0.4, Ecoli growth 0.74, Ecoli rRNA inh OD600 10 and Ecoli rRNA inh RFP 2.3.
`COc1ccc(Cl)cc1C(=O)Nc1nnn(C)n1` gave UCH37 DUB inh 3.0, Beta2AR agonist -10, ALR inh -8, HNF4A DNA FP 0.3 and Ecoli growth 0.67.

These rows are one share of the data; the hit share may differ from the screen's.
